Assay outcomes: PubChem BioAssay, several laboratories
HNF4A DNA FP: change in binding of human HNF4 alpha to DNA; HNF4a-FITC DNA binding, fluorescence polarization, 1 h; 360,000 compounds, 0.3% hits; P41235; activity change, % at 10 µM; AID 1224865; in the data active = activity change above about 30%, passing the limit was not always enough;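 note: controls were the assay level and a saturating level of protein; the project sought stronger binding though the title names inhibitors; some compounds called inactive have numbers as strong as hits; positive values seem to mean higher polarization but the record does not say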
Target sequence (P41235 whole entry, looked up): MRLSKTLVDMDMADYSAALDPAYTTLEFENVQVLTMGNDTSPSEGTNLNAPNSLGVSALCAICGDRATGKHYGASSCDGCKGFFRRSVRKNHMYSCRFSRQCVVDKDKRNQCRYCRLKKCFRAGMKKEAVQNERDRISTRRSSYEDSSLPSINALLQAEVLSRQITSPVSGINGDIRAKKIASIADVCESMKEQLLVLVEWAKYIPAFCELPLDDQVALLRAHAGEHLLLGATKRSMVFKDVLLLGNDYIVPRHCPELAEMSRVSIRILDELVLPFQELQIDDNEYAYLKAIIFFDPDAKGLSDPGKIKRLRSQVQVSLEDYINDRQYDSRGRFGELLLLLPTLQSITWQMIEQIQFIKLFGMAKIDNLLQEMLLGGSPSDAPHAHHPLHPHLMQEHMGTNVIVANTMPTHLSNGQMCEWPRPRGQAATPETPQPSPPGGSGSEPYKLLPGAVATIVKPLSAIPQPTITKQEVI
RanGTP-Imp inh: disruptors of Ran-importin-beta complex formation – biochemical, FRET, CFP-Ran, YFP-importin-beta, homogeneous, primary screen; cell-free CFP-Ran/YFP-importin-beta FRET ratio; inhibition, % (test concentration not listed); 300,000 compounds, 1.1% hits; AID 2216;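 active = most replicates above 15%; inconclusive = exactly half above 15%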;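 note: 0% = DMSO wells and 100% = Ran loaded with GDP instead of GTP; wells of about 40 µL received 100 nL stock; the first replicate is given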
B2AR ag: activates human beta-2 adrenergic receptor causing internalization; P07550; Am2.2-beta2AR cells, FAP receptor internalization, flow cytometry; reference of the scale not given here; response, % (concentration not given with the values); 340,000 compounds, 0.43% hits; AID 504454;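 active = response above a set limit, near 3 SD of response in nonfluorescent compounds, cut at about 42% in these data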;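 note: stock transfer was 100 nL into about 11 µL; a reference agonist was the positive control; negative values mostly stem from fluorescent compounds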
Vif TR-FRET: HIV-1 Vif–A3G interaction blockers – biochemical, TR-FRET, GST-Vif 1-94, biotin-A3G peptide, dose response retest, primary screen (AID 1117319) | TR-FRET GST-Vif / biotin-A3G peptide binding; higher % means a stronger effect; test concentration not given here; strong numbers were not always called active | inhibition, %; hits with a dose series show IC50 in µM | 260,000 compounds, 0.57% hits;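 active = above the screen mean plus three standard deviations and confirmed in dose response; inconclusive = results disagree or hit not tested in dose response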;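 note: Vif residues 1-94 fused to GST binding biotinylated APOBEC3G peptide 110-148; 0% = full assay without inhibitor and 100% = GST in place of GST-Vif; retest series ran down from 100 µM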
ALR H2O2 inh: blocks human ALR sulfhydryl oxidase activity | P55789 | purified ALR, DTT oxidation, H2O2 HRP-luminol luminescence | inhibition, % (concentration not given with the values) | 290,000 compounds, 3.8% hits | AID 485317;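 active = mean and each replicate at 75% or more; inconclusive = only one of the two met; inactive = neither met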;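 note: stock transfer was 7.5 nL into about 7.5 µL; 0% = neutral wells and 100% = wells with inactivated enzyme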
Target sequence (P55789 whole entry, looked up): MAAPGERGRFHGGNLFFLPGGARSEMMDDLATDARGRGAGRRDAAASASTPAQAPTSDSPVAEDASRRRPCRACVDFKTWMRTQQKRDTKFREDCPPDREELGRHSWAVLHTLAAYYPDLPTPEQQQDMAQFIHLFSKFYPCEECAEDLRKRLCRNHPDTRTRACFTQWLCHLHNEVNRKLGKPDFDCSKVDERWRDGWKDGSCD
Calb FLC: C. albicans growth modulation with fluconazole; C. albicans CaCi-2 (fluconazole-resistant clinical isolate) + fluconazole, Alamar Blue growth, 48 h; growth inhibition, % (no concentration beside the values); 300,000 compounds, 0.57% hits; AID 1979;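 active = most replicates above 75%; inconclusive = exactly half above 75%; inactive = most below 75%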;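 note: all wells also contain fluconazole at 8 µg/ml as a sub-toxic cotreatment; 0% = median of DMSO wells and 100% = median of geldanamycin control wells; wells of about 8 µL received 7.5 nL stock; the first replicate is given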
LANA-H2A inh: blocks KSHV LANA binding to histone H2A/H2B. Q9QR71. cell-free LANA-H2A/H2B peptide, fluorescence polarization. inhibition, % (test concentration not listed). 320,000 compounds, 0.6% hits. AID 2629; in the data active = inhibition mostly above about 10%, no sharp cut-off; inactive = mostly below about 6.7%;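 note: stock transfer was 7.5 nL into about 10 µL; 0% = median of vehicle wells and 100% = median of positive control wells; one replicate is shown; the record names a cut of 25% in any replicate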
Numbers without * were called inactive; u = inconclusive; x = no result given; & = joins results of further samples.

SMILES	HNF4A DNA FP	RanGTP-Imp inh	B2AR ag	Vif TR-FRET	ALR H2O2 inh	Calb FLC	LANA-H2A inh
C/C(=N/Nc1cc(-c2ccccc2)nc(-c2ccccc2)n1)c1ccc(O)cc1	1.1	-1.8	12	0%	10	0	3.3
N#Cc1c(NC(=O)COC(=O)c2ccc(O)cc2O)sc2c1CCC2	-4.1	x	5	1%	2	x	-2.2
O=C(Cn1cc([N+](=O)[O-])cn1)Nc1ccccn1	0.2	-1.1	2	-3%	-1	-14	-1.0
CCOC(=O)CN1C(=O)CC(c2ccccc2)C1=O (configuration not stated)	-0.3	-1.8	5	x	0	-6	-0.7
CCOc1ccccc1Nc1nc(N)nc(CSc2nncn2C)n1	1.8	3.7	11	-1%	4	14	3.2
CCOC(=O)c1ccc(NC(=O)c2ccnn2C)cc1	1.0	-0.9	0	x	-30	-1	-5.1
O=c1c([N+](=O)[O-])c(O)c2cccc3c2n1CCC3	1.2	1.1	5	5%	-74	-6	0.2
C=C(CCO)C1=CCN(S(=O)C(C)(C)C)[C@H]1CCO (some centres not stated)	-0.3	x	-2	0%	x	x	x
CCOc1ccc(C(=O)Nc2nnn(CC)n2)cc1	0.8	-3.6	0	-12%	2	13	-0.7
O=c1c(-c2ccc(Cl)cc2)c[nH]n1-c1ccccc1	4.2	-2.3	-8	-13%	x	3	-2.1
COc1ccc(CNC(=O)C(=O)c2cn(CC(=O)N3CCCC3)c3ccccc23)cc1	-2.1	0.4	-9	x	-4	8	-8.2
CCCn1c(=O)c2ccccc2n2c(SCC(=O)NCc3cccs3)nnc12	3.8	-2.5	-7	15%	x	3	-1.1
Cc1ccc(C)c(SCC(=O)Nc2cccnc2Cl)c1	2.8	-4.7	0	x	-14	123*	2.8
OCC1(Cc2ccccc2F)CCCN(CC2CCCCC2)C1 (configuration not stated)	2.7	1.7	0	x	1	-12	3.1
COc1ccc(/C=N/NC(=O)CCN2CCN(c3ccccc3)CC2)c(OC)c1OC	-0.3	1.5	-2	9%	22	-10	-1.9
Cc1ccc(C(=O)NCc2ccc(N3CCN(C(=O)OC(C)(C)C)CC3)cc2)cc1	-0.7	0.6	3	u	0	-10	2.7
Cn1c(CO)cnc1SCc1c(Cl)cccc1Cl	-1.0	-0.9	-4	-3%	-2	2	3.9
O=C(CNCCO)N1N=C(c2cccs2)CC1c1cccs1 (configuration not stated)	-3.2	u	-10	x	-14	-14	2.7
COc1ccc(C(C(=O)NC2CCCC2)N(C(=O)c2snc(C(N)=O)c2N)c2ccccc2OC)cc1OC (configuration not stated)	1.7	0.9	-5	3%	x	15	0.5
Cc1cnc(NC(=O)CSc2nnc(-c3ccncc3)n2C2CCCCC2)s1	1.9	1.7	-5	17%	-5	-4	-4.5
CCc1nc2ccc(C(=O)NCc3ccc(C)o3)cc2nc1CC	-0.3	-1.6	-1	-1%	-3	36	0.6
COC(C(=O)NNS(=O)(=O)c1ccccc1[N+](=O)[O-])c1ccccc1 (configuration not stated)	1.5	-2.1	-1	2%	x	0	x
Cc1onc(-c2ccc(Cl)cc2)c1-c1ccnc(SCC(=O)Nc2ccc(C(C)C)cc2)n1	-8.7	2.5	-9	12%	-8	-5	0.0
N#CC1=C(N)OC2=C(C(=O)CC(c3ccco3)C2)C1c1ccc(OCc2c(F)cccc2Cl)cc1 (configuration not stated)	3.6	6.6	-3	15%&14%	-3	-6	4.5
CCCn1c(N)c(N(CCOC)C(=O)c2ccccc2)c(=O)[nH]c1=O	0.4	0.0	2	x	-2	-5	5.4
COc1ccc(NC(=O)C(=O)NCCC2CCCCN2S(=O)(=O)c2cccs2)cc1 (configuration not stated)	3.1	-0.6	-7	x	-2	-7	-2.3
CCC(=O)Nc1ccc2c(c1)ncn2-c1ccc(C)cc1	-1.3	0.8	-10	-4%	-12	5	-0.2
COc1ccc(NC2CCCN(C(=O)c3ccc(C(C)=O)cc3)C2)cc1 (configuration not stated)	4.1	-1.8	1	x	98*	-7	-0.1
CC(=O)N1CCCc2cc(S(=O)(=O)NC(C(=O)NCc3ccc(C)cc3)C(C)C)ccc21 (configuration not stated)	-1.0	2.9	3	u	x	12	3.5
O=C(CN1CCCC1c1ccc2c(c1)OCCO2)NC(=O)Nc1ccccc1F (configuration not stated)	-0.2	x	4	1%	x	x	x
Nc1nc(Nc2ccccc2)n[nH]1	-2.5	-0.5	-6	5%	98*	x	2.4
CN(C)S(=O)(=O)c1ccc(C(=O)Nc2nc(-c3cccs3)cs2)cc1	2.5	-0.2	9	-13%	0	-1	-5.2
O=C(O)/C=C\C(=O)Nc1ccc(F)c(F)c1F	5.9	2.7	4	-9%	6	2	1.2
CC(=O)c1ccc(NC(=O)COC(=O)CCN2C(=O)c3cccc([N+](=O)[O-])c3C2=O)cc1	1.9	13	4	u	-25	42	3.3
Clc1ccc2scc(CN3CCCCC3)c2c1	1.1	-3.4	-7	1%	-2	5	6.3
COc1ccccc1CNC(=O)C(c1ccccc1)c1ccccc1	-2.4	u	7	x	-1	-5	-1.0
CCC(C)(C)NC(=O)C(c1cccc(OC)c1)N(C(=O)c1ccn[nH]1)c1cccc(OC)c1 (configuration not stated)	-1.1	-4.6	3	-3%	3	9	-0.3
CC(/C=N/N1CCN(Cc2ccccc2)CC1)=C\c1ccccc1	-5.8	1.1	4	x	-3	-2	5.7
CN(Cc1ccccc1)Cc1nc2c(c(=O)n(C)c(=O)n2C)n1Cc1ccc(Cl)cc1	-2.1	1.4	-11	4%	-3	4	-3.0
N#Cc1c(-c2cccnc2)c2c([nH]c1=S)CCCC2	1.1	0.5	9	28%	0	2	6.9
Cc1ccc(-c2nnc(SCC#N)n2N)cc1	-0.2	4.9	1	-12%	-6	-15	-4.1
COc1ccccc1NC(=O)NC1CCCCCCC1	5.8	x	-3	x	-2	1	1.9
O=C(N/N=C/c1ccc(-c2ccc([N+](=O)[O-])cc2)o1)[C@H]1C[C@@H]1c1ccccc1	65*	-51	17	16%	x	-7	1.3
COc1ccc(CCNC(=O)c2c(O)c3ccccc3[nH]c2=O)cc1	0.5	-2.5	4	x	-11	-9	-0.3
CCNc1ccccc(-c2ccc3ccccc3n2)c1=O	-0.5	4.4	6	15%	7	12	-1.4
CCc1ccc(-c2nc(CN3CCC(C(=O)NCc4ccc(F)cc4)CC3)c(C)o2)cc1	3.5	0.3	21	3%&-5%	-6	-9	-3.1
CCCc1[nH]n(-c2ccc([N+](=O)[O-])cc2)c(=O)c1C=NCCN1CCNCC1	x	1.3	x	x	-24	16	2.1
O=C1N/C(=N\N=C\c2ccco2)SC1Cc1ccccc1[N+](=O)[O-] (configuration not stated)	0.3	-0.6	3	19%	65	-3	0.2
O=C(COc1ccccc1)NCC(=O)NC1CCCCC1	5.8	0.0	3	10%	-1	2	0.1
O=C(CCC(=O)N1CCSc2ccccc21)NCc1cccc(Cl)c1	2.0	-1.9	-23	x	-8	-3	0.4
Cc1ccc(NC2=C/C(=N\S(=O)(=O)c3cccs3)c3ccccc3C2=O)c(C)c1	-2.5	4.7	64*	15%	-34	-1	-2.8
N#CC1(Nc2ccc([N+](=O)[O-])cc2)CCCC1	1.8	x	7	10%	x	x	x
O=C(CSc1ncccn1)N/N=C/c1cccc(OC2CSC2)c1	0.4	-5.4	-23	31%	-14	-15	3.4
CCOc1cc(/C=C(\C#N)C(=O)Nc2cccc(C(=O)O)c2)cc(Br)c1OC(=O)c1ccc(OC)cc1	-2.6	6.2	-84	3%	12	8	-0.6
Cc1ccc(Cn2c(CN3CC(C)OC(C)C3)nc3c2c(=O)n(C)c(=O)n3C)cc1 (configuration not stated)	-2.9	7.0	-11	3%	-1	-3	3.0
N#Cc1nnn(Cc2ccccc2)c1N	0.4	-2.9	10	-13%	-23	-9	0.8
Cc1nc2c3cc(Cl)ccc3n(CCN3CCOCC3)c2s1	1.7	0.8	-13	18%	12	-1	9.3
Cc1ccc(CC2CC(=O)N(c3ccc4c(c3)OCCO4)C2=O)cc1 (configuration not stated)	2.5	0.5	-2	0%	-2	9	3.1
O=c1[nH]c(Cc2ccccc2)nc2scc(-c3ccccc3)c12	0.9	0.2	2	-3%	-5	10	-8.1
CN(CC(=O)Nc1ccc(F)c(F)c1F)C1CCCCC1	-0.4	2.2	3	-1%	0	-4	5.4

Next results.
SMILES	HNF4A DNA FP	RanGTP-Imp inh	B2AR ag	Vif TR-FRET	ALR H2O2 inh	Calb FLC	LANA-H2A inh
O=C(Oc1cccc(N2C(=O)C3C4c5ccccc5C(c5ccccc54)C3C2=O)c1)c1ccco1 (configuration not stated)	3.2	-3.1	4	x	-3	5	1.9
COc1ccccc1C(=O)N/C(=C\c1cn(C)c2ccccc12)C(=O)N1CCCC1	0.0	3.0	3	x	27	-1	1.5
COC(=O)c1ccc(OC(=O)c2cccs2)cc1	0.5	-3.9	-6	-4%	-1	-19	-0.1
O=C(NCCCN1CCCC1)[C@H](CSCc1ccccc1)N1Cc2ccccc2C1=O	-4.2	1.9	11	26%	-8	-9	-2.8
CC(C)(C)NC(=O)C1Cc2ccccc2CN1C(=O)Nc1cccc(Cl)c1 (configuration not stated)	1.0	-2.1	-2	u	-6	-2	18
Cc1ccc(C(=O)OCC(=O)Nc2cc(C(C)(C)C)no2)c(C)c1	2.7	x	6	u	-7	x	12*
Cn1c(CC2Sc3ccccc3NC2=O)nnc1SCC(=O)c1ccc(Cl)cc1 (configuration not stated)	0.2	1.7	-1	1%	93*	8	-0.7
Nc1c(C(=O)Nc2ccc3c(c2)OCCO3)nnn1Cc1cccc(Br)c1	-2.8	0.0	-7	-4%	-1	-1	3.1
COc1cc(/C=C(\CC(=O)O)c2nc3ccccc3s2)cc(OC)c1O	3.6	-0.9	5	>100µM*	100*	4	0.8
Cc1cc(C)nc(NS(=O)(=O)c2ccc(Br)cc2)n1	-0.9	2.7	2	u	-6	6	3.9
COc1ccc(NC(=O)Cn2nnc(C(=O)NCc3ccccc3)c2N)c(OC)c1	0.8	-6.0	-3	-7%	0	-15	-3.1
Fc1cccc(C2NC(=S)NC3=C2N2CCC3CC2)c1 (configuration not stated)	-0.7	-2.4	3	-3%	9	10	-1.2
CCOC(=O)c1sc(NC(=O)C(CC)OC(=O)c2ccco2)nc1C (configuration not stated)	2.9	-1.1	-1	x	6	-3	-7.9
Cc1nc(-c2ccc(C(F)(F)F)cc2)sc1C(=O)NN	-5.7	-1.8	7	-9%	-16	-6	-1.1
O=C(Nc1ccc(F)cc1F)c1noc2c1CCC2	-1.1	5.9	-11	13µM*	24	-5	-6.0
CCCn1c(N)c(C(=O)CSc2nnc3ccccn23)c(=O)[nH]c1=O	-0.8	x	-2	-6%	-3	x	0.6
COc1ccccc1/C=C/C1=NC(=C\N(C)C)/C(=O)O1	5.8	37*	5	12%	0	1	3.8
COc1ccc(NC(=O)Cn2nnc3ccccc32)c([N+](=O)[O-])c1	1.3	1.8	-4	-9%	x	-18	-4.4
Cc1cc(C(=O)c2ccccc2)cc(C)c1O	-0.9	x	-3	2%	x	x	x
